Compound activity: PubChem, ICCB-Longwood Screening Facility, Harvard Medical School
GIV Gai3 FP – blocks GIV peptide binding to rat Galpha-i3 | Galpha-i3/FITC-GIV peptide fluorescence polarization, 90 min; hits give low values; scaled: aluminum fluoride 0%, vehicle 100% | percent of control (FP), % (test concentration not listed) | hit rate 0.42% among 210,000;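 active = replicate mean at 85% of control or lower, very high polarization wells dropped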;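 also: wells of about 15 µL received 100 nL stock; the first replicate is given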
Target sequence (P08753 whole entry, looked up): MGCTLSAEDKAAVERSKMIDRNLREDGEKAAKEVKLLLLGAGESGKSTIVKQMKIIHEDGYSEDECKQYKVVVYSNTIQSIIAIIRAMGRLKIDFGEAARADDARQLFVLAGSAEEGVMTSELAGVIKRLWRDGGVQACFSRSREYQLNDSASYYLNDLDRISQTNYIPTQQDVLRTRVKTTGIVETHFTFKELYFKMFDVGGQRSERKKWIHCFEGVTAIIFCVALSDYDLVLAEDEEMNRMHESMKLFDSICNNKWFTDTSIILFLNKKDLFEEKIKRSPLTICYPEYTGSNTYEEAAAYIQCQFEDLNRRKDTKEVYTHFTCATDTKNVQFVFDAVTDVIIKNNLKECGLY
Sa growth 42C – blocks Staphylococcus aureus growth. S. aureus RN4220 growth, OD600, 20 h, 42 °C; hits give low values. relative growth, % (test concentration not listed). hit rate 0.53% among 170,000. AID 720641;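 active = growth at 42 °C up to 50% and 20 or more points under that at 30 °C, or under 10% at both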;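 also: 300 nL library stock went into each well; scaled to the means of positive and negative controls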
HCMV NEC inh – inhibitors of HCMV UL50-UL53 nuclear egress complex interaction; hit rate 0.15% among 190,000; AID 1918969; inhibition, % (test concentration not listed); HTRF UL50-UL53 interaction, normalized percent inhibition;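 active = both replicates at 50% or more, plus weaker picks with an unusually low signal ratio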;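 also: stock transfer was 100 nL into about 20 µL; 0% = negative control wells and 100% = wells with untagged competitor protein; inactives centre near -12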
Sa growth 42C second temp – further read-out of Sa growth 42C, marked with its call; relative growth, %; measured here: growth at 30 °C;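 optical density after 20 h as mean of two plates; 100% = untreated growth and lower means inhibition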
* marks the source's active call; other numbers are inactive results; nt = no result given; & = joins results of further samples.

Structure	Sa growth 42C	HCMV NEC inh	GIV Gai3 FP	Sa growth 42C second temp
CN(C)c1ccc(C(=O)OCC(=O)c2cccs2)cc1	110	-3	nt	86
Cc1ccc(SC(C)C(=O)Nc2ccc(CC#N)cc2)cc1 (stereo unspecified)	111	-10	103	93
Cc1ccc(C)n1NC(=O)c1ccc(O)cc1	102	3	97	94
Cn1c(=O)c2sccc2n2c(CCC(=O)NCCc3ccc(S(N)(=O)=O)cc3)nnc12	nt	-19	98	nt
O=C(CCc1nc2cccnc2n1Cc1ccccc1)NCCCc1ccccc1	94	-2	101	83
Cc1nc2cccnc2n1CCNC(=O)Nc1cccc2ccccc12	95	-17	121	77
O=C(CSc1nc2cc3ccccc3cc2[nH]1)Nc1ccc(F)cc1	104	-39	109	87
C=CCc1ccc(OCCCCCN2CCOCC2)c(OC)c1	92	-21	99	85
S=c1oc(-c2ccccc2)nn1CNc1ccccc1Br	92	-35	nt	75
Cc1ccccc1NC(=O)Cc1ccccc1	96	1	nt	112
CCn1c(SCC(=O)c2ccc([N+](=O)[O-])cc2)nnc1-c1ccc(Cl)cc1	85	-40	106	73
COc1ccc(C2=C(C)C(N3CCC(C(=O)NC4CCCc5ccccc54)CC3)=NS2(=O)=O)cc1 (stereo unspecified)	nt	8	99	nt
CC(C)(C)c1ccc(C(=O)NCCCn2ccnc2)cc1	98	-16	nt	85
O=C(NCc1ccc(F)cc1)c1cccc(NC2=NC3CS(=O)(=O)CC3S2)c1 (stereo unspecified)	nt	-9	110	nt
O=C(CNC(=O)c1ccccc1)N=Nc1c(O)[nH]c2ccccc12	95	-99	105	88
O=C(c1cc(-c2ccc(Br)cc2)on1)N1CCCCC1	98	-2	98	88
CCC1CN(CC(=O)NCc2cccc(Br)c2)c2ccccc2S1 (stereo unspecified)	121	nt	105	96
Cc1ccc(-c2noc(-c3cn(Cc4ccc(NS(=O)(=O)c5ccc(C)cc5)cc4)cn3)n2)cc1	nt	-13	105	nt
CC1(C)Oc2ccc3ccc(=O)oc3c2/C(=C/N2CCCCC2)C1=O	95	-36	110	90
Cc1noc2ncnc(N3CCN(c4ccccc4F)CC3)c12	94	nt	100	94
Cc1c(C(=O)NC2CCCC2)oc2ccc(S(=O)(=O)N(C)C3CCCCC3)cc12	142	nt	107	89
CC(C)OC(NC(=O)c1ccccc1)(C(F)(F)F)C(F)(F)F	94	-20	104	87
O=S(=O)(c1ccccc1)n1nc(-c2ccc(Cl)cc2)nc1NCc1ccc(F)cc1	105	-2	107	87
Cc1cc(NCC2CCCO2)n2nc(-c3ccc(Cl)cc3)c(C)c2n1 (stereo unspecified)	nt	-3	107	nt
Cc1ccc(NC(=O)COc2cn(-c3ccccc3)nn2)cc1C	102	-6	nt	104
COc1ccccc1-c1cc(C(=O)N2CCCN(c3ccc(=O)n(-c4ccc(C)c(C)c4)n3)CC2)[nH]n1	nt	-32	102	nt
CCOc1ccc(CCNC(=O)c2ccc(-c3nc(COc4ccc(C)cc4)c(C)o3)cc2)cc1	96	-2	93	96
CN1CCc2nc(NC(=O)c3ccc(Cl)cc3)sc2C1	nt	-17	99	nt
COc1ccccc1-n1ccnc(SCC(=O)NC2CCCCC2)c1=O	98	-52	97	91
Cc1c(C(=O)Oc2ccc(Cl)cc2)n(C)oc1=O	100	18	102	101
O=S(=O)(Nc1ccc(N2CCN(c3ncccc3C(F)(F)F)CC2)nc1)c1ccc(Cl)cc1	98	0	104	68
CC(=O)OCc1ccc(C(=O)Nc2nccs2)cc1	101	-5	nt	99
O=C(Nc1cccnc1Cl)c1cc(-c2ccc(Cl)cc2)on1	100	-7	102	91
CCc1ccc(OCC(O)Cn2c(CC)nc3ccccc32)cc1 (stereo unspecified)	nt	-29	108	nt
Cc1ccc(CNc2nc3ccccc3n3cnnc23)cc1	105	-18	101	86
CC(C)c1ccccc1NC(=O)CN(c1ccccc1)S(=O)(=O)N(C)C	108	-14	104	94
Cc1[nH]c(C)c(S(=O)(=O)N2CCCc3ccccc32)c1C(=O)N1CCCC1	99	-18	99	85
COC(=O)c1sccc1NC(=O)CSc1nccn2nc(-c3ccccc3)cc12	nt	-1	105	nt
N#Cc1c(NC(=O)CS(=O)(=O)c2ccc(Cl)cc2)sc2c1CCCCC2	108	nt	101	98
Cc1ccc(CN(C(=O)COc2ccc(Cl)cc2Cl)C2CCS(=O)(=O)C2)o1 (stereo unspecified)	115	-7	100	92
CCN(CC)CCNC(=O)c1cn(CC)c2ccc(S(=O)(=O)N3CCc4ccccc4C3)cc2c1=O	89	-31	103	86
C=CCN1C(=O)/C(=C2/SC(C)=C(C)N2CC)SC1=Nc1c(C)n[nH]c1C	112	-20	109	78
Cc1nc2c(C(=O)NCc3ccccc3Cl)c[nH]n2c(=O)c1Cl	94	-25	108	70
O=C(Nc1cc(Cl)ccc1N1CCCC1)c1cccc(S(=O)(=O)N2CCCC2)c1	89	-14	nt	92
O=C(CNC(=O)c1ccccc1F)OC1CCOC1=O (stereo unspecified)	85	-9	nt	96
CC(=O)Nc1ccc(-c2cn(CC(=O)NN)cn2)cc1	102	-3	107	95
COc1ccc(-c2nnc(SCc3c(Cl)cccc3Cl)o2)cc1	102	-12	103	89
CO[C@H]1O[C@H](COC(C)=O)[C@@H](OC(C)=O)[C@H](OC(C)=O)[C@H]1OC(C)=O	94	-21	103	89

Arranged by value in GIV Gai3 FP (descending): 3 from the list above
canonical_smiles	Sa growth 42C	GIV Gai3 FP	Sa growth 42C second temp
C=CCN1C(=O)/C(=C2/SC(C)=C(C)N2CC)SC1=Nc1c(C)n[nH]c1C	112	109	78
Cc1nc2c(C(=O)NCc3ccccc3Cl)c[nH]n2c(=O)c1Cl	94	108	70
CCN(CC)CCNC(=O)c1cn(CC)c2ccc(S(=O)(=O)N3CCc4ccccc4C3)cc2c1=O	89	103	86

Additional structures:
Structure	Sa growth 42C	HCMV NEC inh	GIV Gai3 FP	Sa growth 42C second temp
CCn1c(SCC(=O)O)nnc1-c1cccs1	95	-29	nt	92
COc1cccc(-n2c(SCC(=O)N3CCCc4ccccc43)nc3c([nH]c4ccccc43)c2=O)c1	107	nt	97	87
COc1ccc(N2C(=O)c3cc(C)nn3CC2(C)C(=O)NCc2ccccc2)cc1 (stereo unspecified)	nt	-1	97	nt
FC(F)(F)C1=CC(c2ccccc2)=NCCN1	90	-25	nt	88
CCN1CCN(C(=O)C2CCN(Cc3cc(Cl)ccc3O)CC2)CC1	109	4	102	95
Cc1cc(C)c(S(=O)(=O)N2CCC(N3CCN(Cc4ccc(F)cc4)C(=O)C3=O)CC2)cc1C	nt	-18	102	nt
CCS(=O)(=O)c1ccc2oc(SCC(=O)N3c4ccccc4CC3C)nc2c1 (stereo unspecified)	105	-14	nt	89
O=C1NNC(=S)Nc2ccccc21	93	-14	106	88
CCCN1C(=O)c2ccccc2CC1(C)C(=O)NC1CCC(C)CC1 (stereo unspecified)	nt	-11	102	nt
Cc1oc(-c2ccc(C(=O)NCc3ccco3)cc2)nc1COc1ccccc1	100	-16	100	86
COc1ccc(Cl)cc1CN1CCCCC1	94	-12	nt	82
CCOC(=O)c1cccnc1SCC(=O)NCc1ccccc1	101	4	106	77
Cc1cn(C)c(CC(=O)Nc2cccc(Cl)c2C)c1C(=O)O	127	nt	107	101
CCCNC(=O)c1ccc2c(c1)N=C(CCC)c1ccccc1S2	121	8	106	86
Cc1ccc(-c2nc3sc4nc5ccccc5nc4n3n2)cc1	99	-23	nt	87
COC(=O)C1CC2C=CC1C2 (stereo unspecified)	134	16	nt	99

Shown with values under each structure: part of the list above
Below each compound – Sa growth 42C, HCMV NEC inh, GIV Gai3 FP, Sa growth 42C second temp
CCCNC(=O)c1ccc2c(c1)N=C(CCC)c1ccccc1S2
 : 121, 8, 106, 86
Cc1ccc(-c2nc3sc4nc5ccccc5nc4n3n2)cc1
 : 99, -23, nt, 87

New compounds follow
Structure	Sa growth 42C	HCMV NEC inh	GIV Gai3 FP	Sa growth 42C second temp
CCOC(=O)c1oc2c(c1C)-c1nn(Cc3c(F)cccc3Cl)cc1CC2	112	-19	104	82
Cc1ccc(S(=O)(=O)N(Cc2ccccc2)CC(C)C(=O)O)cc1 (stereo unspecified)	143	-3	103	94
CCOc1ccc(CCNC(=O)C2c3ccccc3C(=O)N3CCc4ccccc4C23)cc1OCC (stereo unspecified)	98	nt	103	95
O=C1COc2ccc(NC(=O)c3ccccc3F)cc2N1	nt	-6	102	nt
COc1ccc(OC)c(C2CC(=O)C(C(C)C)C(c3cc(OC)ccc3OC)N2)c1 (stereo unspecified)	105	-4	104	86
CC(C)N(CC(N)=O)C(=O)Cc1coc2cc3c(cc12)CCC3	134	4	nt	101
CCOC(=O)c1cc(S(=O)(=O)N2CCN(c3ccc(C(C)=O)cc3)CC2)[nH]n1	101	nt	102	101
Cc1ccccc1-c1nn2c(=O)cc(N3CCN(C(=O)Nc4ccccc4F)CC3)nc2s1	nt	12	211	nt
OC[C@H]1O[C@@H](OCc2ccccc2)[C@H](O)[C@@H](O)[C@@H]1O	125	4	nt	87
CCCN(C(=O)Cc1nc(-c2ccc(OC)cc2)no1)c1ccccc1C	103	nt	104	91
COc1cc(C2Nc3cccc4cccc(c34)N2)cc(I)c1O	90	-29	105	58
COc1cccc(OC)c1C(=O)NN	89	-3	110	99
CCCc1nn2c(=O)cc(COC(=O)c3cccc(NC(=O)c4cccs4)c3)nc2s1	90	nt	103	87
COc1cccc(OCCCN2CCNCC2)c1	107	nt	101	91
Cc1cc(=O)oc2c1C(=O)CC(C)(C)C2	91	-7	102	94
COc1ccc(CC(=O)NC(C)c2nnc(SCC(=O)Nc3cc(C)ccc3OC)n2C)cc1 (stereo unspecified)	103	-4	106	102
Cc1nc2ccccc2c(=O)n1/N=C/c1ccsc1	75	-14	nt	98
CCCOc1ccc(NC(=O)CC2C(=O)N(c3ccc(OC)cc3)C(=O)N2CCc2ccncc2)cc1 (stereo unspecified)	106	nt	101	66
Cc1ccc(NC2=NC(c3ccc(C)cc3)n3c(nc(C)cc3=O)N2)cc1 (stereo unspecified)	nt	22	103	nt
Cn1c(=O)c2[nH]c(=S)[nH]c2n(C)c1=O	107	-1	102	87
N#CCSc1ccc(Br)cc1	56	2	nt	85
NS(=O)(=O)c1ccc(CCNC(=O)CCCCCn2c(=O)[nH]c3ccccc3c2=O)cc1	89	nt	102&102	96
COC(=O)CNc1nc(-c2ccncc2)nc2ccccc12	108	-2	103	94
O=C(Cc1cccs1)Nc1nc2ccccc2s1	132	6	nt	59
Cc1ccc2c(c1)c(=O)c(S(=O)(=O)c1ccc(C)c(C)c1)cn2CC(=O)Nc1ccccc1	107	11	108	80
O/N=C/c1ccc(N2CCOCC2)cc1	111	-31	nt	92
COC(=O)C1=C(C)OC(N)=C(C#N)C1c1c(C)nn(-c2ccccc2)c1Cl (stereo unspecified)	97	-8	104	75
CC1=CC(C)C2C(=O)N(c3ccc[n+](C)c3)C(=O)C2C1 (stereo unspecified)	78	nt	108	92
Oc1ccc(CN2CCN(c3ccccc3)CC2)c2cccnc12	114	nt	110	97
COc1ccc(C2=CSC3=NS(=O)(=O)CCN23)cc1OC	86	-37	nt	88
Cc1ccn(CCC(=O)N(C)Cc2ccco2)n1	103	2	97	96
Clc1ccc(-c2nnc3n2-c2ccccc2SC3)cc1	93	-11	105	77
NC(=O)c1cnn(-c2ccc(C(F)(F)F)cn2)c1N	73	-9	nt	87
COc1ccc(CNC(=O)CSC(C)(C)C)cc1OC	77	-22	nt	91
Clc1ccc(OCc2ccccc2)c(Cl)c1	95	-11	nt	88
CN(CC(=O)N1CCCCC1)S(=O)(=O)c1cnc[nH]1	98	6	106	91
FC(F)(F)Oc1ccccc1NCn1nnc2ccccc21	107	-37	98	95
O=C(CCCCn1c(=O)[nH]c2ccsc2c1=O)N1CCN(Cc2ccc3c(c2)OCO3)CC1	93	2	105	103
COc1ccc(CN2C(=O)CC(C(=O)Nc3ccc(OC)cc3)SC2=Nc2ccccc2)cc1 (stereo unspecified)	nt	3	108	nt
Cc1ccccc1NC(=O)c1sc2nc3c(cc2c1N)CN(Cc1ccccc1)CC3	113	-39	100	86
COc1ccc(Cl)cc1NC(=O)Nc1c(-c2cccnc2)[nH]c2ccccc12	nt	-6	102	nt
CN(Cc1ccccc1)C(=O)c1cccc(F)c1	106	-2	nt	95
CN1CCN(c2ncnc3c2cnn3-c2cccc(Cl)c2)CC1	108	nt	100	87
COC(=O)c1cc(CNCC2(N3CCCCC3)CCCCC2)oc1C	123	4	nt	98
O=C(NCc1cccn1Cc1ccccc1)Nc1cccc(C(F)(F)F)c1	97	nt	102	92
CCN(C(=O)CSc1nc(C)cc(COC)c1C#N)c1ccccc1	121	-11	105	87
CC(C)OCCCn1c(=O)c2cc(Cl)ccc2n2c(SCc3ccc(F)cc3Cl)nnc12	nt	2	100	nt
COc1ccc(NC(=O)c2sc3nc4n(c(=O)c3c2C)CCCCC4)cc1	95	nt	101	77
